Compound activity deposited in PubChem BioAssay by several laboratories.
RecA intein inh: Mtb RecA intein splicing inhibition; P9WHJ3; cell-free RecA intein splicing, fluorescence; inhibition, %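 (about 9 µM by stock and volumes)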; 290,000 tested, 0.75% active; AID 2221; in the data active = inhibition above about 30%; inconclusive = no clear call, values can overlap the other calls;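 also: 0% = vehicle wells and 100% = reference inhibitor control wells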
Target sequence (P9WHJ3 whole entry, looked up): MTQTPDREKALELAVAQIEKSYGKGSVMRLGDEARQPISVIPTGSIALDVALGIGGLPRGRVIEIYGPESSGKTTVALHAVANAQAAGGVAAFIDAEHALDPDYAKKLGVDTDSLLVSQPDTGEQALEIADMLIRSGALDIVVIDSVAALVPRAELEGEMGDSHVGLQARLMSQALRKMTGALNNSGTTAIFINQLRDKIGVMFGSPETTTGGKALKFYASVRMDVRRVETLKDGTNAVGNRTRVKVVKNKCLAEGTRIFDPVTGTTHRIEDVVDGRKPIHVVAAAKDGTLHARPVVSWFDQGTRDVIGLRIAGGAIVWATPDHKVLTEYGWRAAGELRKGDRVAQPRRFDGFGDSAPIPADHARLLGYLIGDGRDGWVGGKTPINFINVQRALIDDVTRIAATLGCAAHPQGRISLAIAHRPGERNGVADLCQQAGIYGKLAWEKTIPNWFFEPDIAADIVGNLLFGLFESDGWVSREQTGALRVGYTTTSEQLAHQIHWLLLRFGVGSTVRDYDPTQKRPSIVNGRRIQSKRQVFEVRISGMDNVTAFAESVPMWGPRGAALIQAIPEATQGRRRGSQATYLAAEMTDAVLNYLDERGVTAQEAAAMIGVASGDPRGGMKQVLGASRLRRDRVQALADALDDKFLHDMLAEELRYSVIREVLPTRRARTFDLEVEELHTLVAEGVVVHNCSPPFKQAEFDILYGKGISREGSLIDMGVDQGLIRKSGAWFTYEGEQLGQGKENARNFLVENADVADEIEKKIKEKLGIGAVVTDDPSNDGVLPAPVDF
Mtb bLac sens: beta-lactam sensitization of Mtb H37Rv; inhibition, % at 25 µM; M. tuberculosis H37Rv growth with meropenem, percent inhibition; hits of this screen are not shown here; 330,000 tested, 0.27% active;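 active = about 74% or more and at least 40 points above the plate without the antibiotic, then above 30% in a dose series; inconclusive = first-round hits that could not be retested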;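 also: growth measured after seven days incubation then overnight dye step; 0% = bacteria only wells and 100% = bacteria with antibiotic; twin plates without the antibiotic show which effects depend on it; some results filed as inactive read as strong as hits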
Mtb H37Rv: M. tuberculosis H37Rv growth inhibitors, H37Rv strain (AID 1626); 220,000 tested, 0.95% active; M. tuberculosis H37Rv growth inhibition; higher % means a stronger effect; inhibition, % at 10 µM; hits with a dose series show IC50 in µM;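 active = confirmed in a dose series; inconclusive = inhibition above 80% but not taken into the dose series; inactive = below 80% or under 30% at every dose of the series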;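 also: bacteria incubated seven days before Alamar blue readout; 0% = bacteria only wells and 100% = bacteria with antibiotic wells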
YopH inh: YopH (Yersinia) phosphatase inhibition; fluorescence Ex485/Em525; inhibition, %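 (about 10 µM by stock and volumes)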; 140,000 tested, 0.16% active; AID 898;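 active = inhibition of 50% or more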;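 also: controls were vehicle for no effect and minimum signal wells for full effect; inactives centre near -20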
Arbovirus inh: antivirals against arbovirus infection; arbovirus infection cell-based antiviral screen; inhibition, % at 10 µM; 200,000 tested, 0.37% active;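 active = inhibition from about 30%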;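 also: bluetongue infection of BSR cells; cell survival read as ATP light after 72 h; 0% = infected wells without compound and 100% = uninfected wells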
Arbovirus inh repeat: further read-out of Arbovirus inh, marked with its call; inhibition, %; measured here: 10K subset replicate screen; many hits read low in the repeat;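 first of two repeat runs on a subset; 0% = infected and 100% = uninfected wells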
* marks the source's active call; other numbers are inactive results; u = inconclusive; x = not tested or not shown. This is a subset, so the mix of outcomes need not match the whole.

SMILES	RecA intein inh	Mtb bLac sens	Mtb H37Rv	YopH inh	Arbovirus inh	others
COc1cc(OC)cc(C(=O)NCc2ccc3c(c2)cc(C)n3C)c1	4.3	83	51%	x	-8
COc1ccc(OCCn2c(=N)n(CCO)c3ccccc32)cc1	-1.6	3	8%	-37	1
Cc1ccc(C)c(SCC(=O)OCC(=O)NCCNC(=O)COC(=O)CSc2cc(C)ccc2C)c1	-2.8	-6	x	x	x
CCCn1cc(C(=O)N(C)C2CCCN(Cc3ccccc3F)C2)c(C)n1 (stereo not given)	-0.7	3	x	x	x
Cc1cc2oc(=O)cc(CNc3ccccc3F)c2cc1O	2.5	3	x	x	x
O=C(CN1CCCCC1)Nc1cccc(Br)c1	1.4	-9	-10%	16	3
CN1C(=O)c2ccc(C(=O)Nc3ccc4c(c3)OCO4)cc2C1=O	0.6	4	x	x	x
Cc1[nH]n(-c2ccccc2)c(=O)c1N=Nc1ccc(C#N)cc1	0.2	2	x	x	x
COc1ccccc1NC(=O)C(CCS(C)(=O)=O)N1C(=O)c2ccccc2C1=O (stereo not given)	-2.3	-1	x	-48	-1
S=C1NC[C@H](CC2CCCCC2)N1CCc1cccc2ccccc12	8.9	5	-1%	x	x
COc1ccc(N2CCN(c3oc(-c4ccco4)nc3C#N)CC2)cc1	-0.6	1	1%	-38	0
CC12CCC(C/C1=N\N=C1\NC(=O)/C(=C\c3cccc(Br)c3)S1)C2(C)C (stereo not given)	22	x	u	-27	-11
O=C(CNc1ccc2ccccc2c1)N/N=C/c1ccc([N+](=O)[O-])o1	-1.5	100	u	7	2
COc1ccc2c(CC(=O)OCC(=O)N3CCc4ccccc43)coc2c1	-1.4	-4	-5%	-12	4
COc1ccc(-c2cc(C(=O)N3CC(C)CC(C)C3)c3ccccc3n2)cc1OC (stereo not given)	7.9	-1	x	x	x
CCCCNC(=O)N1CCN(C(=O)c2ccco2)CC1	-1.9	-1	0%	x	-2
O=C(NNS(=O)(=O)c1ccccc1[N+](=O)[O-])c1cccnc1	6.5	6	3%	x	x
CC(C)(C)c1[nH]nc2c1C(c1cccnc1)C(C#N)=C(N)O2 (stereo not given)	-1.7	-3	-2%	-48	4
CCOc1ccc(C(=O)NC(=S)Nc2cccc(S(=O)(=O)NC3=NCCC3)c2)cc1	8.6	3	-4%	x	-18
CSc1nnc(C)c(/C=C/Nc2ccc(F)cc2F)n1	6.0	-2	6%	x	-7

A draw from above in order of formula weight, low to high:
SMILES	RecA intein inh	Mtb bLac sens	Mtb H37Rv	YopH inh	Arbovirus inh	others
Cc1cc2oc(=O)cc(CNc3ccccc3F)c2cc1O	2.5	3	x	x	x
Cc1[nH]n(-c2ccccc2)c(=O)c1N=Nc1ccc(C#N)cc1	0.2	2	x	x	x
O=C(CNc1ccc2ccccc2c1)N/N=C/c1ccc([N+](=O)[O-])o1	-1.5	100	u	7	2
COc1ccc(-c2cc(C(=O)N3CC(C)CC(C)C3)c3ccccc3n2)cc1OC (stereo not given)	7.9	-1	x	x	x
COc1ccccc1NC(=O)C(CCS(C)(=O)=O)N1C(=O)c2ccccc2C1=O (stereo not given)	-2.3	-1	x	-48	-1
CCOc1ccc(C(=O)NC(=S)Nc2cccc(S(=O)(=O)NC3=NCCC3)c2)cc1	8.6	3	-4%	x	-18
Cc1ccc(C)c(SCC(=O)OCC(=O)NCCNC(=O)COC(=O)CSc2cc(C)ccc2C)c1	-2.8	-6	x	x	x

The listing continues.
SMILES	RecA intein inh	Mtb bLac sens	Mtb H37Rv	YopH inh	Arbovirus inh	others
CC1(C)Oc2ccc(C(=O)NNC(=O)Nc3ccccc3)cc2NC1=O	-1.3	6	x	x	x
Cc1ccc(C(=O)NC(C)C2CC3CCC2C3)c(C)c1 (stereo not given)	0.5	96	x	x	x
CC(C)CSc1ccc(S(=O)(=O)NCC(=O)O)cc1[N+](=O)[O-]	x	x	-2%	x	8
COc1ccccc1NS(=O)(=O)c1cc(N2Cc3ccccc3C2=N)ccc1N1CCOCC1	0.9	-1	11%	x	-29
O=C(N/N=C/c1ccc(OC(=O)c2cccc(Br)c2)cc1)c1cccnc1	-1.1	86	x	x	x
COc1cc(C2C3=C(CC(C)(C)CC3=O)NC3=C2C(=O)c2ccccc23)ccc1O (stereo not given)	-1.7	-5	2%	x	13
CCOc1ccc(NC(=O)CCC(=O)c2ccc(F)cc2)cc1	-2.3	-4	x	x	x
CC(Sc1nnc(NCc2ccccc2)s1)C(=O)Nc1ccc2c(c1)C(=O)c1ccccc1C2=O (stereo not given)	4.9	83	72%	-21	9
CCOc1ccccc1NC(=O)CSc1nnc(NC(=O)c2ccco2)s1	-2.0	0	x	x	x
COCCCNC(=O)Cn1cc(/C=C2\C(=O)NC(=O)N(c3ccccc3F)C2=O)c2ccccc21	2.7	8	x	x	x
CCOc1ccc(CCNC(=O)C2=C(C)C(=O)OC23CCCCC3)cc1OCC	-0.9	1	-1%	x	8
COc1ccc(NC(=O)CSCc2ccccc2C)cc1	1.1	21	71%	-17	-7
CCN(CC(=O)Nc1ccc(NC(C)=O)cc1)C(=O)/C=C/c1cccs1	1.1	0	-3%	-6	3
COc1ccc(OC)c(-c2csc(NC(=O)Cc3cc(OC)c(OC)c(OC)c3)n2)c1	-0.6	1	x	x	x
CCc1ccc(N(CC(=O)NC(C)(C)C)C(=O)CCC(=O)Nc2ccccn2)cc1	-0.5	-5	x	x	x
Cc1nn(-c2ccc(F)cc2)c2sc(C(=O)O)cc12	1.5	1	-3%	-43	-3
Cc1ccc(N=C2NC(=O)CC(C(=O)Nc3ccc4c(c3)OCO4)S2)cc1 (stereo not given)	-1.2	0	-3%	x	12
Cc1ccc(NC(=O)C2C3CCCC2C3c2ccccc2)c(C)c1 (stereo not given)	-3.8	58	7%	8	0
CN(Cc1ccccc1)c1nc2nonc2nc1N1CCCC(CN2CCCC2=O)C1 (stereo not given)	-0.7	-4	-3%	x	x
CCOC(=O)C1=C(CN2CCOCC2)NC(=O)NC1c1cc(C)ccc1C (stereo not given)	2.0	-2	-5%	-30	-4
COc1cccc(/C=N/Nc2nc(Nc3ccc([N+](=O)[O-])cc3)nc(N3CCCC3)n2)c1O	0.7	2	u	x	-8
CC[C@@]1(c2ccccc2)C(=O)N(C(=O)OC)N1C(=O)OC	-0.8	-3	x	x	x
CCOc1ccccc1NC(=O)CCNC(=O)c1ccc(Cl)cc1	-4.0	10	-7%	x	2
COc1cccc(-c2ccc3c(N)c(C(=O)NC4CC4)sc3n2)c1	-8.1	-1	x	x	x
Cc1ccc(S(=O)(=O)N(Cc2cc3cc4c(cc3[nH]c2=O)OCCO4)CC2CCCO2)cc1 (stereo not given)	1.5	3	0%	-8	-7
N=c1sccn1CC(=O)Nc1ccccc1Cc1ccccc1	9.4	16	-6%	-26	5
Cc1nc2ccccc2n1CSc1ccccc1	6.0	-3	2%	-24	-7
CC(C)N(C(=O)COC(=O)c1cccc(N(C)C)c1)c1ccccc1	2.6	7	x	x	x
CC1CCN(C(=O)c2ccccc2SCC(=O)NCC2CCCCC2)CC1	3.2	0	x	x	x
COC(c1ccccc1)c1nnc(CCC(=O)N(C)CCc2ccccc2)o1 (stereo not given)	0.3	2	-2%	x	5
Cc1ccccc1NC(=O)c1sc2nc(N3CCOCC3)c3c(c2c1N)CCCC3	-2.0	51	x	x	x
COC(=O)Cn1cnc2c(cnn2-c2ccc(OC)cc2)c1=O	-0.5	-3	x	x	x
O=C(c1ccccc1N1CCOCC1)N1CCCC(Nc2ccc(F)cc2)C1 (stereo not given)	-2.3	-6	x	x	x
CCOC(=O)c1nnn2c3ccccc3c(=O)n(C)c12	-0.5	-4	-5%	x	x
Cc1ccc(N)c(C(O)(C(F)(F)F)C(F)(F)F)c1	x	1	-12%	-42	15	Arbovirus inh repeat=-2
CCOC(=O)N1C(=O)[C@@](CC)(c2ccccc2)N1C(=O)OCC	0.1	-12	x	x	x
Cn1c(S(=O)(=O)c2ccc([N+](=O)[O-])cc2)nc(Br)c1Br	-2.7	-8	4%	x	x
COc1ccccc1N1CCN(C(=O)C2c3ccccc3Oc3ccccc32)CC1	12	6	5%	-36	-19
CC(C)CC(c1nnnn1CCc1ccccc1)N1CCN(C(=O)c2ccco2)CC1 (stereo not given)	2.2	-11	-9%	-38	-1
Cc1nc2ccccc2c2c1C(=O)N(C)C2=O	58*	0	-5%	-17	-1
CCN(CC)CCCNC(=O)c1[nH]c2ccccc2c1Sc1ccc(Cl)cc1	8.3	10	x	x	x
CC(Cc1n[nH]c(=S)o1)c1ccccc1 (stereo not given)	0.7	-5	0%	x	0
Cc1ccc(-c2ccc(/C=N/c3ncn[nH]3)o2)cc1Cl	-1.5	98	30µM*	-26	3
Cc1noc(C)c1C(=O)N1CCN(S(=O)(=O)c2cccc(Cl)c2Cl)CC1	1.1	-7	2%	x	x
COC(=O)c1ccc(C(=O)OC)c(NC(=S)N2CCCC(CO)C2)c1 (stereo not given)	-4.6	4	0%	x	4
COc1cc(CNC2CCCC2)cc(Cl)c1OCc1ccccc1Cl	-6.4	97	23%	-24	-30
O=S1(=O)N=C2CCCCCN2C(c2ccc(F)cc2)N1 (stereo not given)	11	3	7%	x	1
CCCn1nc(NC(=O)c2cccs2)c2cc3ccccc3nc21	-60	23	1%	-133	-4
COc1cc(CN2CCN(Cc3ccc(C)cc3)C(CCO)C2)cc(OC)c1O (stereo not given)	-5.8	-9	0%	x	9
CCC(C)NC(=O)Cn1cnc2sc(C)c(S(=O)(=O)N3CCN(c4ccccc4OC)CC3)c2c1=O (stereo not given)	-0.8	0	x	x	x
CCOC(=O)c1nc(-c2ccc(OC)c(OC)c2)cnc1C#N	-19	3	-6%	-34	0
CCN(CCn1cccn1)C(=O)c1cc(COc2c(F)cccc2F)on1	-0.6	-8	-5%	x	-2
CCOc1[nH]n(-c2ccccc2)c(=O)c1C=NCc1cccnc1	-1.0	18	3%	x	3
Cc1cc(Cl)ccc1OC(C)C(=O)Nc1ccc(C(=O)Nc2ccccc2C(=O)O)cc1 (stereo not given)	15	18	x	x	x
CC(C)(C#N)NC(=O)C(=O)c1c(-c2ccccc2)cc2ccccn12	-1.8	-5	x	x	x
CC1Cc2ccccc2N1CC(=O)Nc1ccc2c(c1)OCO2 (stereo not given)	-9.2	-1	3%	-21	-9
COc1ccc(CCNC(=O)Nc2ccc(F)cc2F)cc1OC	1.5	-13	x	x	x
O=C(c1ccc(Cl)cc1)c1c[nH]c(C(=O)C(Cl)(Cl)Cl)c1	80*	84	-8%	-17	-40
C=CCC1CCCC(=O)N2CC[C@H](O)C12 (stereo not given in full)	-0.2	-27	-9%	-15	9
CC1(c2ccc(OC(F)F)cc2)NC(=O)N(CC(=O)c2ccc3c(c2)OCO3)C1=O (stereo not given)	0.8	99	x	x	x

Gathered by group, those above with a tert-butyl group.
SMILES	RecA intein inh	Mtb bLac sens	Mtb H37Rv	YopH inh	Arbovirus inh	others
CC(C)(C)c1[nH]nc2c1C(c1cccnc1)C(C#N)=C(N)O2 (stereo not given)	-1.7	-3	-2%	-48	4
CCc1ccc(N(CC(=O)NC(C)(C)C)C(=O)CCC(=O)Nc2ccccn2)cc1	-0.5	-5	x	x	x

The list continues:
SMILES	RecA intein inh	Mtb bLac sens	Mtb H37Rv	YopH inh	Arbovirus inh	others
CCC1CCCN1Cn1cnc2c([nH]c3ccc(Cl)cc32)c1=O (stereo not given)	0.5	-5	-5%	-37	-26
N#C/C(=C\c1ccc(OCc2ccccc2)cc1)C(N)=O	10	-6	4%	x	2
CCOC(=O)CCCNC(=O)CCCNC(=O)C(c1ccccc1)c1ccccc1	x	-4	-8%	0	3
Cc1ccc(-n2c([O-])nc(-[n+]3ccccc3)c2C=O)cc1	1.9	-16	5%	-17	19
Cn1nc(N)c2c(-c3ccc(Cl)cc3)c(C#N)c(N)nc21	-0.8	-2	-8%	4	-2
CCOc1cc2c(cc1OCC)C(C(=O)O)C(c1cc(Br)c(O)c(OC)c1)N(C)C2=O (stereo not given)	x	-1	-8%	-47	8
O=C(NCCCN1CCOCC1)C(C(=O)NCCCN1CCOCC1)c1ncc(C(F)(F)F)cc1Cl	-0.2	-6	-7%	x	6
Cc1ccc(CSC2=CS(=O)(=O)c3ccccc3N2)cc1	-0.9	-1	4%	-19	3
N#Cc1cccc(NC(=O)COC(=O)CCc2nc3ccccc3c(=O)[nH]2)c1	0.1	5	1%	x	1
c1ccc(Nc2cccc3c(Nc4ccccc4)cccc23)cc1	16	6	-3%	x	x
Cc1ccc(N(C)S(=O)(=O)c2c[nH]c3ccc([N+](=O)[O-])cc23)cc1	2.4	2	x	x	x
N#C/C(=C\c1cccnc1)c1nc2c(s1)CCCC2	-14	15	-7%	x	5
Cc1cc(C)cc(NC(=O)Cn2c(-c3ccccc3Cl)nc3ccccc32)c1	0.2	4	-2%	-17	-7
COC(=O)CN1C(=S)N(c2ccc(Cl)cc2)C(=O)C1CC(=O)Nc1ccccc1 (stereo not given)	-0.1	8	-10%	-12	-2
O=C1N(Cc2ccc(F)cc2)CCN1c1ccc(F)cc1	0.3	-3	8%	x	-3
